Ecoli growth – E. coli growth inhibition, primary screen, OD600. Escherichia coli growth, 23 h; stronger effect = lower value. OD600 absorbance (concentration not given with the values). 330,000 compounds, 0.21% hits;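 active means OD600 absorbance below the run mean of sample wells minus 3.6 SD, in any replicate, cut at about 0.56 in these data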;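 further: stock transfer was 300 nL into about 60 µL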
HNF4A DNA FP – change in binding of human HNF4A to DNA, primary screen, biochemical, fluorescence polarization, FITC-DNA | AID 1224865, 2016 | 1 h | activity change, % at 10 µM | 360,000 compounds, 0.3% hits | Hepatocyte nuclear factor 4-alpha (Homo sapiens), P41235; in the data active means activity change above about 30%, passing the limit was not always enough;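 further: controls were the assay level and a saturating level of protein; the project sought stronger binding though the title names inhibitors; some compounds called inactive have numbers as strong as hits; positive values seem to mean higher polarization but the record does not say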
Target sequence (P41235 whole entry, looked up): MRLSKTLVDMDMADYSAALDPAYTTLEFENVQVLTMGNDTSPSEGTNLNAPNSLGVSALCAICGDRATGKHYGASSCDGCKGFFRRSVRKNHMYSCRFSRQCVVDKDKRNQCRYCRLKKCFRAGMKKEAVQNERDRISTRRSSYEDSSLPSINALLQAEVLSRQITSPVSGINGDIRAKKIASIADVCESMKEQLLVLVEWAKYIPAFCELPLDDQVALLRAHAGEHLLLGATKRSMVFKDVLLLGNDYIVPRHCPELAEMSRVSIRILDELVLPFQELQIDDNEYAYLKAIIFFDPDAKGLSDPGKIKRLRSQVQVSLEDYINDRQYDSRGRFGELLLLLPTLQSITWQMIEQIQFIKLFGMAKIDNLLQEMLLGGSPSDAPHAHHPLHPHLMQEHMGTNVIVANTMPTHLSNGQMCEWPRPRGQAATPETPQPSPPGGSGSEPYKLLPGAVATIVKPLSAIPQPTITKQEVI
Vif TR-FRET – inhibitors of Vif binding to APOBEC3G peptide, primary screen, biochemical, TR-FRET, GST-Vif 1-94, biotin-A3G peptide, dose response retest (AID 1117319); Virion infectivity factor (Human immunodeficiency virus type 1 group M subtype B (isolate …; TR-FRET GST-Vif / biotin-A3G peptide binding; higher % means a stronger effect; test concentration not given here; strong numbers were not always called active; inhibition, %; hits with a dose series show IC50 in µM; 260,000 compounds, 0.57% hits;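 active means above the screen mean plus three standard deviations and confirmed in dose response; inconclusive means results disagree or hit not tested in dose response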;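 further: Vif residues 1-94 fused to GST binding biotinylated APOBEC3G peptide 110-148; 0% = full assay without inhibitor and 100% = GST in place of GST-Vif; retest series ran down from 100 µM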
ALR H2O2 inh – inhibitors of human ALR sulfhydryl oxidase, primary screen, biochemical, H2O2 detection, HRP-luminol luminescence, single point; FAD-linked sulfhydryl oxidase ALR (Homo sapiens), P55789; purified ALR, DTT oxidation; inhibition, % (no concentration beside the values); 290,000 compounds, 3.8% hits; AID 485317, 2010;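 active means mean and each replicate at 75% or more; inconclusive means only one of the two met; inactive means neither met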;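 further: stock transfer was 7.5 nL into about 7.5 µL; 0% = neutral wells and 100% = wells with inactivated enzyme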
Target sequence (P55789 whole entry, looked up): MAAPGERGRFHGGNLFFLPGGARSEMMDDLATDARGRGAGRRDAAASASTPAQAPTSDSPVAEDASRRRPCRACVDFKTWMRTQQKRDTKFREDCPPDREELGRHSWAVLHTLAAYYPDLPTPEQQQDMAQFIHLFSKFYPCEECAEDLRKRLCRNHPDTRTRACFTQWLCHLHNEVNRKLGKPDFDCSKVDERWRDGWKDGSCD
FGF22 binding – binders of human FGF22 protein, primary screen, FGF22 synaptogenesis inhibitor project, biophysical, thermal shift, single point. 340,000 compounds, 1.5% hits. Fibroblast growth factor 22 (Homo sapiens), Q9HCT0. AID 651658, 2012. calls only at 9.99 µM. recombinant FGF22 thermal shift, SYPRO orange fluorescence; percent of sucrose octasulfate shift, DMSO zero;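 active means melting point raised past a set limit in the mean and every replicate; inconclusive means no clear call; three in four hits are not shown here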
Target sequence (Q9HCT0 whole entry, looked up): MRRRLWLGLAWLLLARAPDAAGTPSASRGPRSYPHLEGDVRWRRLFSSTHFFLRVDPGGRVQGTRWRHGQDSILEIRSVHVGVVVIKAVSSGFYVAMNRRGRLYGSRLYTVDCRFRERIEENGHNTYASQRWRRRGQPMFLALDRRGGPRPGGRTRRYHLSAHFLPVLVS
MLL AF4-AF9 inh – inhibitors of AF4 peptide binding to AF9, primary screen, biochemical, AlphaScreen, biotin-AF4 peptide, FLAG-AF9, single point; Protein AF-9 (Homo sapiens), P42568; inhibition, % at 10 µM; 350,000 compounds, 0.47% hits;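 active means every replicate reaching a set inhibition limit, whatever the replicate mean, cut at about 25% in these data; inconclusive means mean inhibition reaches that limit but some replicates miss it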;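 further: 0% = plate neutral control median and 100% = total signal loss; the record names both 10 and 1 µM as test concentration; the first replicate is given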
rRNA inh HTS – reduced GFP signal of wild-type E. coli, primary screen, bacterial rRNA inhibitor project, GFP/RFP fluorescence, OD600, single point. E. coli WT GFP vs humanized-ribosome RFP mutants, 24 h; stronger effect = lower value; DMSO median 0, no signal -100. GFP signal change (wild-type ribosome), % (test concentration not listed). 350,000 compounds, 1.6% hits. AID 720706, 2013;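 active means significant combined selectivity score with lowered wild-type GFP, culture density cut under 30%, mutant RFP and density less affected; inactive means any of these conditions unmet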; further: one replicate is shown; some compounds called inactive have numbers as strong as hits
rRNA inh HTS OD600 – also measured in rRNA inh HTS; calls as there; OD600 change, %; measured here: OD600 growth;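 optical density of the mix in the first replicate; 0 = DMSO median and -100 = no signal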
rRNA inh HTS RFP – further read-out of rRNA inh HTS, marked with its call; RFP signal change, %; measured here: RFP humanized mutant strains;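 first replicate; 0 = DMSO median and -100 = no signal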
* marks the source's active call; other numbers are inactive results; i = inactive; ? = inconclusive; · = no result given.

SMILES,Vif TR-FRET,rRNA inh HTS OD600,MLL AF4-AF9 inh,rRNA inh HTS RFP,Ecoli growth,rRNA inh HTS,HNF4A DNA FP,FGF22 binding,ALR H2O2 inh
C=CCNC(=O)CC12CC3CC(C1)CC(CC(=O)NCC=C)(C3)C2,8%,9,-3.2,3.4,0.63,11,-4.5,i,36
COc1ccc(CN2C(=O)NC3(CCOc4ccccc43)C2=O)cc1F (configuration not stated),·,·,2.5,·,0.68,·,1.2,i,1
C[C@@H]1CN([C@H](C)CO)C(=O)c2cc(NC(=O)CCC(F)(F)F)ccc2O[C@H]1CN(C)Cc1ccc2c(c1)OCO2,·,8,-2.5,-1.4,·,1,·,i,·
N#Cc1ccccc1COC(=O)c1ccc2c(c1)OCCO2,·,-20,-2.6,1.6,0.61,-4,4.0,i,·
CCn1c(COc2ccc(Cl)cc2)nnc1SCC(=O)Nc1ccc2c(c1)OCCO2,9%,·,·,·,0.69,·,-4.8,·,-8
Cc1c(NC(=O)COC(=O)c2cc3c4ccccc4n(C)c3s2)c(=O)n(-c2ccccc2)n1C,17%,·,·,·,0.71,·,1.4,·,-2
Cc1ccccc1NC(=O)NCCCN1CCCC1=O,0%,9,0.8,-0.1,0.73,2,-0.7,i,16
O=C1C(=O)N(CCCn2ccnc2)C(c2ccc(Cl)cc2)/C1=C(\O)c1ccc2c(c1)OCCO2 (configuration not stated),·,18,-17,-0.1,0.7,5,0.2,i,1
COc1ccc(-c2nc3c(C)cc(Br)cn3c2Cc2ccsc2)cc1OC,·,·,1.3,·,·,·,13,i,·
COc1ccc(CN2C(=O)CCCC2(C)c2nc3ccccc3[nH]2)cc1 (configuration not stated),·,6,0.0,1.8,·,7,1.7,i,·
Cc1noc(C)c1S(=O)(=O)Nc1ccc2c(c1)CC(=O)N([C@H](C)CO)C[C@H](C)[C@@H](CN(C)C(=O)Nc1cccc3ccccc13)O2,·,0,-0.6,2.3,·,0,·,i,·
O=C(NCc1cccs1)C1CCCN(c2nc3ccccc3o2)C1 (configuration not stated),2%,·,·,·,0.7,·,0.4,·,-12
CCCN1CCN(C(=O)Cn2cccc2C(=O)c2ccccc2)CC1,23%,·,·,·,0.68,·,0.8,·,-1
Cc1n[nH]c(C)c1CCN(C)Cc1cn(C)nc1-c1ccc2c(c1)OCCO2,·,-10,-0.3,-1.6,0.64,-3,3.0,i,-7
COc1ccccc1CNC(=O)C[C@H]1CC[C@@H]2[C@H](COC[C@H](O)CN2C(=O)Nc2ccccc2)O1,·,-8,0.1,-3.3,·,-5,·,i,·
Cc1nc(C)c(CC(=O)N2CCc3c([nH]c4ccccc34)C2c2ccccn2)s1 (configuration not stated),7%,2,5.7,5.9,0.69,4,1.2,i,60
COC(=O)C[C@@H]1CC[C@H]2[C@@H](COc3ccc(NC(=O)c4cccc(F)c4)cc3C(=O)N2C)O1,·,1,-0.2,-1.8,·,3,·,i,·
CC1CCCN(Cc2nc3c(c(=O)n(C)c(=O)n3C)n2CC(=O)c2ccccc2)C1 (configuration not stated),22%,9,4.2,3.4,0.7,5,5.7,i,-9
COCCCNC(=O)C[C@@H]1C[C@@]2(C(=O)OC)CC(C)(C)CC=C2N(Cc2ccco2)C1=O,·,5,0.1,0.2,·,4,1.2,i,·
C[C@@H]1CN([C@H](C)CO)C(=O)c2cccc(NC(=O)c3ccncc3)c2O[C@@H]1CN(C)Cc1ccc2c(c1)OCO2,·,1,-1.9,-2.0,·,0,·,i,·
Cc1ccc(N(CC(=O)NC2CCCCCC2)S(=O)(=O)c2c(C)nn(C)c2C)cc1,?,·,·,·,0.7,·,-3.3,·,·
O=C(NCC[C@@H]1CC[C@@H](NS(=O)(=O)c2ccc(Cl)cc2)[C@H](CO)O1)c1ccc2c(c1)OCO2,·,-9,0.7,0.4,·,-2,·,i,·
COC(=O)c1ccc(CSc2nncn2C)cc1,-6%,·,·,·,0.68,·,-3.1,·,·
COc1cc2c(C#N)c(N3CCc4ccccc4C3)nc(N)c2c(N)n1,31%,·,·,·,0.68,·,1.7,·,·
COc1ccc2[nH]c3nc(SCC(=O)Nc4cccc(NC(C)=O)c4)nnc3c2c1,-2%,-6,-0.8,-4.4,0.67,-2,1.9,i,-6
CCC(C)Nc1nc2c(c(=O)n(C)c(=O)n2C)n1Cc1ccc(Cl)cc1 (configuration not stated),·,-1,-0.3,-2.4,0.73,-1,-3.5,i,9
COc1ccc(N2CCN(C3CC(=O)NC3=O)CC2)cc1 (configuration not stated),7%,·,·,·,0.7,·,-0.9,·,68
C[C@H](NC(=O)C[C@@H]1CC[C@@H]2[C@@H](COc3ccc(NC(=O)C4CCOCC4)cc3C(=O)N2C)O1)c1ccccc1,·,-1,-0.3,-2.1,·,3,·,i,·
Cc1ccc2c(c1)c1c(n2CC(O)Cn2ccnc2C)C(=O)CCC1 (configuration not stated),-8%,·,·,·,0.73,·,3.4,·,-2
CCCCn1c(N)c(N(CC(C)C)C(=O)c2ccc(F)c(S(=O)(=O)N3CCOCC3)c2)c(=O)[nH]c1=O,-9%,9,0.5,1.5,0.65,10,-1.5,i,-6
CCCCN(C)CCCNC(=O)CC1Oc2ccccc2NC1=O (configuration not stated),-7%,-15,-9.6,4.3,0.75,-9,3.7,i,6
O=C(NCCCn1ccnc1)C(=O)c1cn(CC(=O)N2CCCCCC2)c2ccccc12,-7%,-4,2.0,-2.0,0.73,-2,0.8,i,-4
Cc1cc(=O)oc2c3c(cc(OCC(=O)NCCCn4ccnc4)c12)OC(C)(C)CC3,·,·,2.2,·,0.74,·,2.3,i,-6
Cc1cc(SCC(=O)c2cccs2)n2nc(C)c(-c3ccccc3)c2n1,·,·,11,·,0.66,·,-1.1,i,-27
Cc1sc2nc(CSC(C)C(=O)NC3(C#N)CCCCC3)[nH]c(=O)c2c1C (configuration not stated),10%,-2,-0.7,0.2,0.67,0,7.5,i,·
CCOC(=O)c1csc(NC(=O)CN2CCCCC2)n1,-12%,6,-1.7,1.9,0.68,11,0.5,i,·
N#CC(CC(=O)c1ccc(F)cc1)c1ccc2c(c1)OCO2 (configuration not stated),·,8,0.6,3.2,0.64,6,3.4,i,·
COc1ccc(Cn2c(=S)[nH]c3cc(C(=O)NCc4cccnc4)ccc3c2=O)cc1,-1%,12,-5.4,7.5,0.74,3,0.5,i,16
CCOc1ccc(N(CC(=O)NC2CCCC2)S(=O)(=O)c2c(C)[nH]c(=O)[nH]c2=O)cc1,3%,2,2.3,-0.7,0.72,-1,0.2,i,3
CCn1c(SCC(=O)N2CCC(C)CC2)nc2c([nH]c3ccccc32)c1=O,·,-1,0.4,0.3,·,0,1.7,i,·
Cc1cc(C)nc(Nc2n[nH]c(-c3cccc4ccccc34)n2)n1,0%,·,·,·,0.73,·,4.3,·,-1
COc1ccc(OCCCC(=O)Nc2cccnc2)cc1,2%,·,·,·,0.75,·,4.2,·,-2
CCCC(=O)Nc1c2c(nn1-c1ccc(C)cc1)CS(=O)(=O)C2,3%,7,-1.7,4.4,0.61,25,2.2,i,2
N#C/C(C(N)=O)=c1/ccc2c(c1)N1C3=C(CCCC3)CC3CCCCC31N=2 (configuration not stated),28µM*,·,85*,·,·,·,·,·,65
C[C@@H]1CN([C@H](C)CO)C(=O)c2cc(C#CC(C)(C)O)cnc2O[C@@H]1CN(C)C(=O)c1ccccc1F,·,16,-5.1,-1.9,·,16,·,i,·
CCN1C(=O)[C@@H]2[C@@H](c3ccc(-c4ccc(OC)cc4)c(OC)c3)N3CCC[C@@]3(C(=O)OC)[C@@H]2C1=O,·,2,0.8,-2.8,·,4,1.9,i,-9
CCCCCCCNC(=O)C1(CC2CC(c3ccc(Cl)cc3)=NO2)CCN(C(=O)CCCCCBr)CC1 (configuration not stated),·,-32,2.1,16,0.64,-19,2.1,i,-20
O=C(NCCCN1CCCC1=O)C(=O)NCC1OCCCN1S(=O)(=O)c1ccccc1 (configuration not stated),·,·,-1.3,·,·,·,-3.6,i,·

Reprinted from the entries so far (two entries):
SMILES,Vif TR-FRET,rRNA inh HTS OD600,MLL AF4-AF9 inh,rRNA inh HTS RFP,Ecoli growth,rRNA inh HTS,HNF4A DNA FP,FGF22 binding,ALR H2O2 inh
COc1ccc(Cn2c(=S)[nH]c3cc(C(=O)NCc4cccnc4)ccc3c2=O)cc1,-1%,12,-5.4,7.5,0.74,3,0.5,i,16
CCOc1ccc(N(CC(=O)NC2CCCC2)S(=O)(=O)c2c(C)[nH]c(=O)[nH]c2=O)cc1,3%,2,2.3,-0.7,0.72,-1,0.2,i,3

The results go on:
SMILES,Vif TR-FRET,rRNA inh HTS OD600,MLL AF4-AF9 inh,rRNA inh HTS RFP,Ecoli growth,rRNA inh HTS,HNF4A DNA FP,FGF22 binding,ALR H2O2 inh
CCOc1cc(CNCc2ccccn2)cc(Cl)c1OCC,-4%,-9,5.2,3.0,0.68,1,2.7,i,-4
C[C@H]1CCCCO[C@@H](CN(C)C(=O)Nc2ccc(F)cc2)[C@@H](C)CN([C@@H](C)CO)C(=O)c2cc(NS(=O)(=O)c3cccs3)ccc2O1,·,-16,-10.0,5.4,·,-1,·,i,·
CC(C)(C)NCC(O)(c1ccc(Cl)cc1)c1ccc(Cl)cc1,-9%,·,·,·,0.7,·,-1.7,·,0
CCOc1c(OC(C)=O)ccc(/C=C/c2ccc3cccc(OC(C)=O)c3n2)c1[N+](=O)[O-],?,-73,3.7,-32,0.66,-52,-0.9,i,-2
Cc1c([N+](=O)[O-])cc(N2C(=O)C=CC2=O)cc1[N+](=O)[O-],2%,9,·,-3.4,0.67,7,-1.2,·,·
O=C(Nc1cccc2c1CCCC2)c1ccncc1,2%,7,-1.4,3.4,0.66,3,-3.6,i,·
O=C(COC(=O)Cc1ccc(Br)cc1)NC1CC1,-6%,-16,-1.9,2.2,0.68,1,0.1,i,5
O=c1ccc2cc3c(-c4ccccc4)coc3cc2o1,-2%,-64,-1.4,-7.8,0.66,-34,-2.2,i,-5
C/C(=N\NC(=O)c1cc(C)oc1C)c1ccc2ccccc2c1,·,0,-0.3,0.5,·,-7,4.3,i,1
C[C@H]1CN([C@@H](C)CO)C(=O)c2cccc(NC(=O)c3ccc(-c4nccs4)cc3)c2O[C@H]1CN(C)Cc1ccc(-c2ccccc2)cc1,·,-8,2.1,1.9,·,-4,·,i,·
O=C(O)c1ccc(NS(=O)(=O)c2cccc(S(=O)(=O)c3ccc(Cl)c(Cl)c3)c2)cc1,11%,·,·,·,0.68,·,-0.6,·,-6
N#Cc1ccc(-n2nccc2-c2cnc3n(c2=O)CCS3)cc1,12%,·,·,·,0.68,·,-0.9,·,14
Cc1ccnn1CCC(=O)N1CCCC(CCC(=O)N2CCN(c3ccccn3)CC2)C1 (configuration not stated),20%,0,0.2,1.4,0.7,13,0.0,i,0
CCOC(=O)c1cnc(-n2nc(C)cc2C)nc1Nc1ccc(O)cc1,·,-6,0.4,8.6,0.7,3,2.1,i,-4
CC1C(=O)OC2C1CCC1(C)CCC(=O)C(C)C21 (configuration not stated),-3%,11,-6.4,-1.0,0.72,6,0.7,i,0

An excerpt (hit frequency here may not be typical).
